# StopGo reporter: lowers the luciferase signal of an FMDV 2A StopGo reporter | Potency, µM (doses to about 57.9 µM), inactives show top-dose signal change, negative = less light | human cells with a luciferase reporter of 2A StopGo recoding; control for the full effect not named in the record | AID 1159524 | 410,000 tested, 1.2% active; active = well fitted falling curve with a large enough effect; inconclusive = small, poorly fitted or top-dose-only effect; inactive = no such curve, though single readings can be large or run the other way; tested in HEK293T cells; note: % is set by controls: 0 for no effect and ±100 for the full control effect; nearly all actives have a fitted effect of over 45% in size; luciferase light after 4 h
# NS1 function inh: inhibitors of influenza NS1 protein function | S. cerevisiae slowed by influenza A NS1, growth recovery by OD600 | Potency, µM (highest dose often 46.1 µM), without a hit: at the top dose activity, positive = more growth | 270,000 tested, 0.4% active | AID 2326; active means well fitted rising curve with a large enough effect; inconclusive means small, poorly fitted or top-dose-only effect; inactive means no such curve, though single readings can be large or run the other way; note: nearly all actives have a fitted effect of over 50% in size
#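 Compounds were scored for reversing the slow growth caused by influenza A NS1 in S. cerevisiae, measured by optical density at 600 nm. Assay medium contained 2% galactose at pH 6.0; NS1-free yeast of the same strain were the positive control.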
# Cruzain inh Det: blocks cruzain activity in presence of Triton detergent | P25779 | purified cruzain, Z-FR-AMC fluorescence, 0.01% Triton | Potency, µM, without a hit: max response, negative = inhibition, actives largely listed as inhibitors | 200,000 tested, 0.43% active | AID 1478;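 note: plate controls were neutral wells for no effect and buffer without enzyme for full effect; nearly all actives have a fitted effect of over 40% in size; top concentration of the series not given in the record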
# Target sequence (P25779 123-467 limits assumed): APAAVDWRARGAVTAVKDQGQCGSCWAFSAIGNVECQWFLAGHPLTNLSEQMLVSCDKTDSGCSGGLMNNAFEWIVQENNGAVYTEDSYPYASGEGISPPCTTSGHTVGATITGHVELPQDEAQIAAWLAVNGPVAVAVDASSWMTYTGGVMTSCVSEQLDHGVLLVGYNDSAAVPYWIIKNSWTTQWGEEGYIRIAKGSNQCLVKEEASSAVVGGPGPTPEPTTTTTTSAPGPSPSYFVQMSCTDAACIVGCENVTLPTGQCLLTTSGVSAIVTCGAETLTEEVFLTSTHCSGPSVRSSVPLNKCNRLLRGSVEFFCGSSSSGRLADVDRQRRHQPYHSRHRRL
#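 Sodium acetate buffer (100 mM, pH 5.5) containing 5 mM DTT and 0.01% Triton X-100 hosted 1.5 nM cruzain and test compound for 15 min at room temperature. Cleavage of 2 uM Z-FR-AMC was then tracked by fluorescence.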
# Cruzain inh noDet: blocks cruzain activity in detergent-free assay. purified cruzain, Z-FR-AMC fluorescence, no detergent. 200,000 tested, 2.3% active. Potency, µM, for the others: max response, negative = inhibition, usual class: inhibitors. P25779;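 note: plate controls were enzyme without inhibitor for no effect and buffer without enzyme for full effect; nearly all actives have a fitted effect of over 40% in size; top concentration of the series not given in the record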
#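 Purified cruzain at 1.5 nM, pre-incubated 15 min with compound at room temperature in 100 mM sodium acetate pH 5.5, 5 mM DTT, 0.00005% Triton X-100. Reaction started with 2 uM Z-FR-AMC; AMC fluorescence increase over 60 s gives rate.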
# RE007 growth inh: less growth of the S. pombe RE007 Vpr strain | 360,000 tested, 0.21% active | Potency, µM (doses to about 92.2 µM), inactives show top-dose activity change, negative = less growth | S. pombe RE007 Vpr strain, BacTiter-Glo ATP luminescence, 24 h; control for the full effect not named in the record; active = well fitted falling curve with a large enough effect; inconclusive = small, poorly fitted or top-dose-only effect; inactive = no such curve, though single readings can be large or run the other way;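 note: % is set by controls: 0 for no effect and ±100 for the full control effect; nearly all actives have a fitted effect of over 50% in size; the assay follows cell death caused by Vpr and the record does not say whether a fall means rescue or toxicity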
#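 Fission yeast strain RE007, carrying one chromosomally integrated HIV-1 vpr copy, was seeded at OD 0.01 in PMG+AL medium with 23 nL pinned compound. After 24 h at 30 °C and 99% humidity, viability was read by BacTiter-Glo luminescence.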
# SARS PLP yeast: blocks SARS-CoV papain-like protease in a yeast assay | S. cerevisiae expressing SARS-CoV PLpro, growth rescue; control for the full effect not named in the record | Potency, µM (doses to about 32.9 µM), inactives show at the highest dose activity, positive = growth rescue | 330,000 tested, 0.19% active | AID 485353; active means well fitted rising curve with a large enough effect; inconclusive means small, poorly fitted or top-dose-only effect; inactive means no such curve, though single readings can be large or run the other way; note: 0% is about no effect; nearly all actives have a fitted effect of over 55% in size; growth read by luminescence after 48 h
# Marburg entry inh: blocks Marburg virus binding to or entry into cells. Marburg virus pseudotyped entry inhibition, cell reporter; control for the full effect not named in the record; about a third of the inactives were read at about 46 µM. Potency, µM (titrated, usually from 37.8 µM), for inactives: at the highest dose activity change, negative = inhibition, most hits filed as inhibitors. 300,000 tested, 1.8% active; active = well fitted inhibition curve with a large enough effect; inconclusive = small, poorly fitted or top-dose-only effect, or effect the other way; inactive = flat fitted curve, though single readings scatter; tested in HEK293 cells; about a fifth of its hits are not listed in these tables; note: % is set by controls: 0 for no effect and ±100 for the full control effect; luciferase read-out
# LASV entry inh: blocks Lassa virus binding to or entry into cells | 300,000 tested, 1.2% active | Lassa virus pseudotype entry inhibition, cell reporter; control for the full effect not named in the record | Potency, µM (titrated, usually from 37.9 µM), for inactives: top-dose activity change, negative = inhibition, usual class: inhibitors; active means well fitted inhibition curve with a large enough effect; inconclusive means small, poorly fitted or top-dose-only effect, or effect the other way; inactive means flat fitted curve, though single readings scatter; tested in HEK293 cells; note: % is set by controls: 0 for no effect and ±100 for the full control effect; nearly all actives have a fitted effect of over 50% in size; luciferase read-out
# * hit, by the source's call; ? = inconclusive; nt = not tested or not shown; [ ] = remark or other dose. Unless noted, calls come from the whole dose curve; as a rule, active = well fitted curve in the direction sought with a large enough effect; inconclusive = small, poorly fitted or top-dose-only effect, or another doubt; inactive = no such curve, though single readings can be large; an effect the other way counts as inactive or inconclusive. Potency is the fitted concentration of half-maximal effect. Random draw from the library, and some 4.5% of all compounds hit somewhere here.
SMILES,StopGo reporter,NS1 function inh,Cruzain inh Det,Cruzain inh noDet,RE007 growth inh,SARS PLP yeast,Marburg entry inh,LASV entry inh
Cc1nc2cc(-c3ccccc3)nn2c(C)c1CCC(=O)NCc1ccco1,6%,-5%,-4.5%,?,-7%,13%,nt,nt
COc1ccc(C)cc1S(=O)(=O)N1CCN(S(=O)(=O)c2cc(C(=O)O)ccc2C)CC1,-16%,18%,nt,nt,-9%,-2%,nt,nt
Cc1cc(C(C)(C)C)n2nc(C)c(-c3ccccc3)c2n1,-14%,3%,nt,nt,30%,-1%,7%[46.1 µM],2%[46.1 µM]
O=C(Nc1ccccc1Cl)N1CCN(C/C=C/c2ccccc2)CC1,-20%,-13%,0.1%,11%,-4%,-10%,1%,?
COc1ccc(CNC(=O)c2c(C)nc3ccccn23)cc1,?,-1%,0.1%,-15%,-3%,-9%,-9%,-9%
Cc1ccc(C=Nc2ccccc2C(N)=O)o1,9%,?,0.0%,-7%,-4%,-24%,0%,-1%
CC(C)(Oc1ccc(Cl)cc1)C(=O)O/N=C(\N)c1ccncc1,-6%,-15%,nt,nt,110%,-3%,16%[46.1 µM],-21%
CN1CCC(=O)N([C@H](CO)Cc2ccccc2)CC1,-6%,11%,nt,nt,4%,-8%,nt,nt
C#C[C@]1(O)CCC2C3CC=C4C[C@H](O)CC[C@]4(C)C3CC[C@@]21C (stereo partly drawn),-28%,nt,nt,nt,-1%,nt,5%,-17%
Cc1ccc2c(c1)c1c(c(=O)n(-c3ccccc3)c(=O)n1CC(=O)N1CCCC1)n2C,-10%,nt,1.2%,-11%,nt,nt,nt,10%[46.1 µM]
Cc1ccc(S(=O)(=O)N(C)CC(=O)N2CCN(Cc3ccccc3)CC2)cc1,-16%,-2%,nt,nt,4%,nt,-8%,-9%
CC(=O)C1=C(O)C(CSCc2ccccc2)N(C)C1=O (stereo not drawn),-17%,nt,nt,nt,12%,nt,?,?
O=C(Nc1ccccc1)c1cc(S(=O)(=O)Nc2cccnc2)ccc1Cl,1%,6%,nt,nt,9%,-1%,-2%,-9%
CC(C)c1ccc(/C=C/C(=O)N2CCCCCC2)cc1,41%[activator],-16%,-4.2%,-5%,-16%,11%,14%,8%
Cc1cc2c(cc1C)NP(=S)(c1ccccc1)N2,33%[activator],nt,nt,nt,-18%,nt,?,?
CCOC(=O)Cn1cc(C(=O)OC)c2ccccc21,-2%,0%,-9.6%,-3%,-1%,0%,5%,18%
CCc1nc2nc(C)cc(Nc3ccc(OC)cc3)n2n1,-10%,nt,-0.1%,-2%,nt,nt,1%[46.1 µM],-17%[46.1 µM]
COc1ccc(C(CNC(=O)c2cc(S(=O)(=O)N3CCCCC3)ccc2C)N2CCCC2)cc1 (stereo not drawn),7%,nt,nt,nt,17%,nt,?,15%
Cc1ccc2oc(=O)n(CCCOc3ccccc3)c2c1,28%,-48%,-2.9%,-10%,-10%,-5%,14%,-5%
Cc1ccc(NC(=S)NCc2ccc3c(c2)OCO3)cc1C,44%[activator],-40%,-6.2%,0%,-12%,-37%,-1%,6%
CCOC(=O)c1nn(-c2ccc(C)cc2)c(=O)cc1OCC(=O)Nc1cccc(OC)c1,-16%,nt,nt,nt,-2%,0%,9%,-25%[46.1 µM]
Cc1ccc(N(CC(=O)N2CCN(c3ccc(F)cc3)CC2)S(=O)(=O)c2c(C)nn(C)c2C)cc1,-28%,-11%,-2.1%,?,-9%,2%,3%,nt
CCCCOC(=O)c1ccc(OC(=O)c2sc3ncn(Cc4cccc(F)c4)c(=O)c3c2C)cc1,14%,nt,0.6%,-4%,nt,nt,nt,7%[46.1 µM]
Cn1nc(-c2ccccc2)c(-c2nc(-c3ccc(Cl)cc3)no2)c1Cl,?,18%,5.5%,-9%,9%,16%,?,11%
CC(C)OP(=O)(OC(C)C)C(Nc1ccccc1)c1cccc([N+](=O)[O-])c1 (stereo not drawn),-19%,0%,nt,nt,6%,0%,?,11%[46.1 µM]

# Further compounds:
SMILES,StopGo reporter,NS1 function inh,Cruzain inh Det,Cruzain inh noDet,RE007 growth inh,SARS PLP yeast,Marburg entry inh,LASV entry inh
Cc1nc2ccccc2c(=O)n1NC(=O)Nc1ccccc1,nt,5%,16%,0%,4%,1%,12%,-2%
O=C(NCc1ccco1)c1ccc2c(=O)n(CC3CCCO3)c(=S)[nH]c2c1 (stereo not drawn),?,-5%,-11%,-6%,1%,5%,?,-2%
COc1ccc(C(=O)CN2C3=NCCCN3c3ccccc32)cc1OC,-20%,-13%,-2.1%,-12%,-13%,9%,?,4%
COc1cc(Br)cc2cc(S(=O)(=O)c3ccccc3)c(=O)oc12,-7%,nt,-3.3%,-13%,nt,nt,21%[46.1 µM],-1%[46.1 µM]
CCOc1cc(C)c(Cl)cc1S(=O)(=O)N(CC)CC,-6%,-38%,-1.2%,-5%,-11%,-9%,-20%,-1%
O=C(NCC1CCCO1)c1cc([N+](=O)[O-])ccc1Cl (stereo not drawn),-2%,nt,nt,nt,-3%,-5%,2%,1%[46.1 µM]
CN(CC(=O)NCC1CCCO1)S(=O)(=O)c1cc(Cl)ccc1Cl (stereo not drawn),-20%,-3%,4.8%,4%,-2%,-1%,16%[46.1 µM],5%
O=C(/C(Br)=C/Nc1cc(Cl)ccc1Cl)C(F)(F)F,0%,7%,-5.0%,-11%,-22%,7%,?,-3%
CC1CCCCC1NC(=O)C1CCN(S(=O)(=O)c2cccc3nonc23)CC1 (stereo not drawn),2%,-2%,nt,nt,44%,-1%,10%[46.1 µM],5%[46.1 µM]
CCc1cc(C(=O)N2CCCC(CNS(=O)(=O)c3cccs3)C2)n(C)n1 (stereo not drawn),-12%,4%,nt,nt,2%,-1%,nt,nt
Cc1ccc(S(=O)(=O)NCCOc2cc(C)ccc2C)cc1,10%,-32%,nt,nt,2%,-1%,nt,nt
CCOC(=O)C1C(C(=O)OC)=C(c2ccc(OC)cc2)c2ccc(OC)cc2N1S(=O)(=O)C(F)(F)F (stereo not drawn),-24%,nt,-2.0%,11%,-15%,-9%,nt,nt
O=C(O)c1ccc(NS(=O)(=O)c2ccc3nnn(O)c3c2)cc1,-2%,4%,3.5%,-5%,-5%,-6%,-6%,6%
CC(C(=O)N1CCOCCOCCOCC1)N1C(=O)c2ccccc2C1=O (stereo not drawn),-13%,4%,nt,nt,6%,0%,nt,nt
CCCCC(=O)Nc1cccc2c1C(=O)N(c1ccccc1)C2=O,-21%,-49%,-5.3%,-6%,-14%,-3%,1%,-11%
CC(C)c1cc(NCC2CCCO2)n2c(nc3ccccc32)c1C#N (stereo not drawn),?,-33%,-23%,-23%,5%,-8%,?,?
COC1(OC)C(/C=C/c2ccc(Cl)cc2)C(C#N)(C#N)C1(OC)OC (stereo not drawn),?,-17%,-6.6%,-9%,-18%,-29%,?,?
O=C(CN1CCN(C(=O)c2cccs2)CC1)NC1CCCCC1,-8%,-18%,7.2%,-3%,-2%,5%,15%[46.1 µM],20%
CCOC(=O)N1CCN(C(=O)COC(=O)c2ccc(O)cc2O)CC1,0%,nt,nt,nt,9%,-5%,1%[46.1 µM],-5%[46.1 µM]
CCC(C)n1c(SCc2ccc(C(C)(C)C)cc2)nc2ccsc2c1=O (stereo not drawn),-27%,nt,1.6%,-2%,nt,nt,nt,-2%[46.1 µM]
Cc1cc(C(=O)Nc2ccc3c(c2)OCCO3)ccc1[N+](=O)[O-],-35%,4%,nt,nt,8%,-8%,nt,nt
CC(N=c1ccccn1C(=O)Nc1ccc(Cl)cc1)c1ccco1 (stereo not drawn),nt,1%,2.5%,?,3%,3%,-1%,5%
O=C(Nc1nc2ccccc2[nH]1)c1ccccc1[N+](=O)[O-],50%[activator],nt,nt,nt,-9%,0%,?,nt
CCCCn1c(Oc2cccc(C(=O)OC)c2)nc2c1c(=O)n(C)c(=O)n2C,0%,nt,1.9%,9%,nt,nt,nt,?
Cc1ccc(C(=O)NCc2cccnc2)cc1S(=O)(=O)Nc1ccccc1,25%,nt,nt,nt,6%,0%,-14%[46.1 µM],-21%

# Brought forward from above: four compounds; new compounds follow.
SMILES,StopGo reporter,NS1 function inh,Cruzain inh Det,Cruzain inh noDet,RE007 growth inh,SARS PLP yeast,Marburg entry inh,LASV entry inh
CC(N=c1ccccn1C(=O)Nc1ccc(Cl)cc1)c1ccco1 (stereo not drawn),nt,1%,2.5%,?,3%,3%,-1%,5%
O=C(Nc1nc2ccccc2[nH]1)c1ccccc1[N+](=O)[O-],50%[activator],nt,nt,nt,-9%,0%,?,nt
CCCCn1c(Oc2cccc(C(=O)OC)c2)nc2c1c(=O)n(C)c(=O)n2C,0%,nt,1.9%,9%,nt,nt,nt,?
Cc1ccc(C(=O)NCc2cccnc2)cc1S(=O)(=O)Nc1ccccc1,25%,nt,nt,nt,6%,0%,-14%[46.1 µM],-21%
CC(C)[C@H](NC(=O)OCc1ccccc1)C(=O)N[C@H](C=O)Cc1ccccc1,8%,-11%,0.032µM*,0.032µM*,nt,nt,0.65µM*,7%
Cc1ccc(CC2CC(=O)N(CCc3ccc4c(c3)OCO4)C2=O)cc1 (stereo not drawn),-32%,-7%,-6.6%,3%,-24%,-13%,15%,-23%
CC1CCCN(C(=O)CCNS(=O)(=O)c2ccc(Br)cc2)C1 (stereo not drawn),-5%,nt,nt,nt,6%,?,2%,-7%
C=CCOc1c(Br)cc(C2C3=C(CCCC3=O)N(C)C3=C2C(=O)CCC3)cc1OCC,33%[activator],?,-6.9%,?,-11%,9%,?,?
CCn1ncc(/C=N/N=C2\CCC3C4CCc5cc(O)ccc5C4CCC23C)c1C (stereo not drawn),-9%,-3%,-4.1%,?,12%,-1%,-11%,-10%
CCSc1ncc(C#N)c(N)n1,5%,-1%,0.8%,0%,30%,7%,-1%,?

# Source: PubChem BioAssay
